From PubChem BioAssay
Rango dissoc inh – prevents RanGTP from dissociating the Rango-importin beta complex; Potency, µM (series often up to 46.1 µM), without a hit: at the highest dose activity change, negative = inhibition; Biochemical FRET Rango-importin beta, RanGTP-induced dissociation; actives 0.071% (n = 340,000); AID 540253; active means falling FRET ratio curve, often poorly fitted, with flat reads before Ran was added; inconclusive means other falling curves, or compound fluorescence or quenching; inactive means flat or rising ratio curve;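 also: potency is read from the fitted curve at half-maximal effect; % of control where 0% means no effect; nearly all actives have a fitted effect of over 45% in size; -100% = wells without RanGTP and RCC1; the record marks most hits as doubtful in a second field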
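Two FRET readings bracket the reaction: one 5 min after compound meets Rango–importin beta, another 45 min after RanGTP-RCC1 (0.6 uM Ran, 0.2 uM RCC1, 2 mM GTP) is added. Only the second defines inhibition.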
GLA inh pH 4.5 – blocks human alpha-galactosidase A at pH 4.5. activity change, negative = inhibition, % at 105 µM. P06280. purified enzyme, 4-MU-alpha-Gal fluorescence, pH 4.5. 230,000 tested, under 10 active; inconclusive = small, poorly fitted or top-dose-only inhibition, or a rising curve; inactive = flat fitted curve, though single readings scatter; no compound was filed as active;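 also: 0% = full activity with enzyme and -100% = basal without enzyme; dose as in the result columns while the protocol names 77 µM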
Target sequence (P06280 whole entry, looked up): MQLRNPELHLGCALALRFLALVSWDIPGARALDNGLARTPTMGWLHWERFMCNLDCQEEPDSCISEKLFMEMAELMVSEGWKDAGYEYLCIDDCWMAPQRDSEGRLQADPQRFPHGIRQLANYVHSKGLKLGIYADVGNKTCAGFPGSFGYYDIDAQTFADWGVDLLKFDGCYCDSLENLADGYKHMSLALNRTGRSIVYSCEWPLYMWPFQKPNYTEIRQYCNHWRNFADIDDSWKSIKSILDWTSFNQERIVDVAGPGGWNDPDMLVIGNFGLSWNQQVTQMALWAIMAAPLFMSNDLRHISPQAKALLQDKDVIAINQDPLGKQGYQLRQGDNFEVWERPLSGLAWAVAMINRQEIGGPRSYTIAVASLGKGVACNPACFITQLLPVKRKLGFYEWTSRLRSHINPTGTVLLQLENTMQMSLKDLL
miR-21 reporter – raises the signal of a miR-21 reporter. HeLa miR-21 FLuc reporter, luciferase, 48 h. Potency, µM (titrated, usually from 38.3 µM), for inactives: top-dose reporter change, positive = more light. 340,000 tested, under 10 active; active = well fitted rising curve with a large enough effect; inconclusive = small, poorly fitted or top-dose-only effect; inactive = no such curve, though single readings can be large or run the other way;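 also: % of control where 0% means no effect; miR-21 action dims this reporter so a rising signal means less miR-21 action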
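HeLa cells stably expressing CMV-driven firefly luciferase with a downstream miR-21 binding sequence, endogenously expressing miR-21, were treated with titrations (up to about 40uM final) for 48 hours at 37 degree Celsius. Luciferase luminescence was read after lysis.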
Rango complex inh – prevents formation of the Rango-importin beta complex; AID 540263; Potency, µM (doses to about 92.2 µM), for the others: at the highest dose inhibition of complex formation; Rango CFP/YFP FRET sensor + importin beta, 45 min; actives 0.031% (n = 340,000); active = rising FRET ratio curve, often small or poorly fitted; inconclusive = mostly compound fluorescence or quenching in the first reads; inactive = flat curves in all reads;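 also: potency is read from the fitted curve at half-maximal effect; 0% = DMSO wells and 100% = buffer wells lacking importin beta; nearly all actives have a fitted effect of over 15% in size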
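Inhibition scored from the CFP 486 nm/YFP 530 nm FRET ratio 45 min after adding 0.125 microM importin beta to 50 nM Rango biosensor preincubated 5 min with compound (room temperature, PBS with DTT, Tween-20, BSA). No-importin wells as positive control.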
* hit, by the source's call; ? = inconclusive; nt = not tested or not shown; & = joins results of further samples. A portion of the library; the hit share may differ from the screen's.

SMILES	Rango dissoc inh	GLA inh pH 4.5	miR-21 reporter	Rango complex inh
Cc1ccccc1N1CCN(C(=O)[C@@H]2CCCN2C2=NS(=O)(=O)c3ccccc32)CC1	10%	nt	nt	0.0%
CCc1nc2ccc(C(=O)NCCc3ccc(OC)cc3)cc2nc1CC	-3%	nt	0%	0.2%
COc1ccc(NC(=O)c2cc([N+](=O)[O-])ccc2N2CCCCC2)cc1OC	1%	nt	nt	-2.6%
C=CC[C@@H](CC(=O)N[C@H](CO)Cc1ccccc1)C(=O)N[C@@H](COC(=O)[C@@H](CC=C)Cc1ccc(F)cc1)Cc1ccccc1	4%	nt	nt	-1.7%
C(=C1c2ccccc2-c2ccccc21)c1ccncc1	1%	nt	nt	0.4%
COc1ccc(C)cc1NC(=O)C12CCC(C)(C(=O)O1)C2(C)C (stereo not given)	-6%	-4	1%	0.4%
O=C(C1CC1)N1CCc2cc(Br)cc(S(=O)(=O)NCC3COc4ccccc4O3)c21 (stereo not given)	11%	-6	9%	-3.3%
COc1ccc(CSc2nc(C)cc(C)c2C#N)cc1	-6%	0	-11%	-1.9%
C=CCNc1nc(Nc2ccc(Cl)cc2)nc(OC)n1	-10%	-13	-53%	0.3%
CCOC(=O)c1cc(C#N)c(N2CCN(C)CC2)nc1-c1ccccc1	-8%	7	-6%	-1.1%
CC(Oc1ccc2ccccc2c1)C(=O)NNC(=S)NC(=O)c1ccco1 (stereo not given)	1%	-15	9%	0.3%
O=C(O)CCCC(=O)Nc1ccc2c(c1)oc1ccccc12	17%	nt	10%	-0.9%
O=c1c2[nH]c3ccc(F)cc3c2ncn1CC1CCCO1 (stereo not given)	0%	-3	-4%	4.9%
CCOC(=O)C1CCN(S(=O)(=O)c2cc3c4c(c2)C(C)C(=O)N4CCC3)CC1 (stereo not given)	-2%	nt	-1%&-2%	-0.8%
ON=C1C2CC=C(c3ccccc3)C1CCC2 (stereo not given)	0%	nt	nt	0.4%

A draw from above in order of number of heavy atoms, smallest number first.
SMILES	Rango dissoc inh	GLA inh pH 4.5	miR-21 reporter	Rango complex inh
COc1ccc(CSc2nc(C)cc(C)c2C#N)cc1	-6%	0	-11%	-1.9%
COc1ccc(NC(=O)c2cc([N+](=O)[O-])ccc2N2CCCCC2)cc1OC	1%	nt	nt	-2.6%
C=CC[C@@H](CC(=O)N[C@H](CO)Cc1ccccc1)C(=O)N[C@@H](COC(=O)[C@@H](CC=C)Cc1ccc(F)cc1)Cc1ccccc1	4%	nt	nt	-1.7%

Remaining list, next part:
SMILES	Rango dissoc inh	GLA inh pH 4.5	miR-21 reporter	Rango complex inh
c1ccc(CN2CCN(c3nc4ccccc4n4cnnc34)CC2)cc1	6%	1	-6%	2.3%
Cc1ccc(NC(=O)CSc2nc(=O)n(CCN(C)C)c3c2CCCC3)cc1Cl	1%	nt	nt	2.8%
COc1ccc(C(=O)O)cc1S(=O)(=O)NCCc1ccccn1	-17%	12	2%	3.6%
CN=C(NC1CCCCC1)c1ccc(Cl)cc1	-6%	4	-6%	-0.6%
CCCc1nc(-c2cc3cc(C)ccc3[nH]c2=O)no1	?	11	-3%	-0.5%
OCCN=Cc1c(O)[nH]c2ccccc12	0%	3	1%	-0.1%
COc1ccc(CCNC(=O)Cn2c([N+](=O)[O-])cnc2C)cc1OC	5%	-4	-1%	-0.4%
Cc1ccc(/C(O)=C2/C(=O)C(=O)N(Cc3ccco3)C2c2cccs2)cc1 (stereo not given)	20%	-6	-6%	3.4%
CN(C)CCCNc1cc(C(C)(C)C)nc2c(-c3ccccc3)cnn12	19%	-7	49%	5.9%
COc1ccc(N(CC(=O)N2CCN(C)CC2)S(=O)(=O)c2cc(C)ccc2OC)cc1Cl	3%	nt	-2%	-2.2%
Cc1cc(S(=O)(=O)N2CCCCC2)ccc1OCC(=O)N1CCOCC1	-10%	nt	2%	0.1%
Cc1ccccc1OC(C)C(=O)NCCCN1CCOCC1 (stereo not given)	-8%	nt	-3%	2.4%
COC(=O)c1c(NC(=O)Cn2cnc([N+](=O)[O-])n2)sc2c1CCC(C)C2 (stereo not given)	-26%	-1	-3%	7.7%
COC(=O)C1C(O)CCC2CN3CCc4c([nH]c5ccccc45)C3CC21 (stereo not given)	?	4	6%	?
CC(=O)Nc1nc2cc(N)ccc2s1	1%	nt	nt	-2.8%

Quoted at random: 5 records from the list, in no set order.
SMILES	Rango dissoc inh	GLA inh pH 4.5	miR-21 reporter	Rango complex inh
Cc1cc(S(=O)(=O)N2CCCCC2)ccc1OCC(=O)N1CCOCC1	-10%	nt	2%	0.1%
Cc1ccccc1OC(C)C(=O)NCCCN1CCOCC1 (stereo not given)	-8%	nt	-3%	2.4%
Cc1ccc(/C(O)=C2/C(=O)C(=O)N(Cc3ccco3)C2c2cccs2)cc1 (stereo not given)	20%	-6	-6%	3.4%
CN(C)CCCNc1cc(C(C)(C)C)nc2c(-c3ccccc3)cnn12	19%	-7	49%	5.9%
CN=C(NC1CCCCC1)c1ccc(Cl)cc1	-6%	4	-6%	-0.6%

Following part:
SMILES	Rango dissoc inh	GLA inh pH 4.5	miR-21 reporter	Rango complex inh
COc1cccc(-c2csc(N3CCN(C(=O)Nc4ccc(F)cc4)CC3)n2)c1	6%	-5	?	-3.3%
CC(=O)NC(=S)Nc1ccc(S(=O)(=O)N(C)Cc2ccccc2)cc1	5%	5	9%	-2.4%
COc1ccc(NC(=O)Cn2ncn3c(cc4ccccc43)c2=O)c(OC)c1OC	6%	nt	-1%	?
O=C(C1=C[C@H](C2CCCCC2)C[C@H](OCc2ccc(CO)cc2)O1)N1CCN(Cc2ccccc2)CC1	12%	-14	5%	0.4%
Cc1ccc(C(=O)N/C(=C\c2ccco2)C(=O)N2CCSCC2)cc1C	7%	2	3%	-0.4%
Cc1ccc(S(=O)(=O)NCCCN(C)C)cc1	-1%	1	-5%	-6.0%
CSc1ccc(/C=C/C(=O)OCC(=O)N2CCN(S(=O)(=O)c3ccc(C)cc3C)CC2)cc1	-1%	nt	nt	-4.5%
O=C(NCc1cccs1)c1cc(-c2ccccn2)nc2ccc(Br)cc12	-1%	6	0%	2.7%
COc1ccc(C(=O)Nc2ccc3c(c2)C(=O)c2ccccc2C3=O)cc1OC	-8%	-13	-33%	0.3%
OC[C@@H]1CCCN1Cc1cn(-c2ccccc2)nc1-c1ccc2c(c1)OCO2	1%	-5	-3%	1.0%
CC(C(=O)NC1CCCCC1)N(Cc1ccc(F)cc1)C(=O)c1snc(C(N)=O)c1N (stereo not given)	-6%	nt	-6%	?
CCC(=O)NC(c1cc(Cl)c2ccccc2c1O)C(C)C (stereo not given)	12%	nt	nt	-5.0%
CCCCn1c(SCC(=O)Nc2cc(C)[nH]n2)nc2ccsc2c1=O	-4%	?	-6%	5.6%
Cc1c(S(=O)(=O)N2CC(C)CC(C)C2)c(=O)n(C)c(=O)n1C (stereo not given)	1%	nt	-3%	4.4%
OCCCCNCc1ccc(OCc2ccc(Cl)cc2)cc1	-11%	2	-41%	-0.9%
Cc1cc(NC(=O)CN2CCCCC2)n(-c2ccccc2)n1	28%	-4	1%	-0.9%
CSc1ccccc1NC(=O)COC(=O)c1ccccc1Cc1ccccc1	1%	-3	-5%	4.0%
Cc1[nH]c(C)c(S(=O)(=O)N2CCN(c3cccc(C(F)(F)F)c3)CC2)c1C(=O)N1CCCCC1	0%	nt	-1%	2.5%
CCN(CC)S(=O)(=O)c1ccc(C(=O)N2CCN=C2SCc2cccnc2)cc1	20%	-8	-3%	0.9%
Cc1cc(C)c2c(CC(=O)NC(C)C)coc2c1	9%	3	-6%	-1.2%
Clc1ccc2c(c1)C=Nc1c(NCc3ccccc3)ncnc1O2	32%	-2	-2%	-0.3%
CCN(CC)c1ccc(/C=N/NC(=O)CNC(=O)c2cccnc2)cc1	6%	nt	0%	-3.1%
COC(=O)c1ccc(N2CCOCC2)c(NC(=O)c2cccnc2)c1	-9%	nt	3%	2.8%
O=C(CCCn1c(=S)[nH]c2ccc(Br)cc2c1=O)N1CCN(c2ccccn2)CC1	-12%	2	-4%	1.1%
Fc1cccc(Cc2noc(CN3CCN(c4cnccn4)CC3)n2)c1	8%	0	-2%	3.6%
Cc1ccccc1N1CCN(S(=O)(=O)c2nnc(NC(=O)c3ccc(F)cc3)s2)CC1	-17%	nt	0%	1.3%
CCO[C@@H]1OC(C(=O)N2CCOCC2)=C[C@H](c2coc3ccccc3c2=O)[C@H]1CCCO	-7%	6	-2%	2.6%
CCOCCCNCc1ccc(OCc2ccccc2Cl)cc1	-7%	-16	-8%	0.1%
CCn1c(=O)n(CC)c2cc(N3CCCC3)c(NC(=O)c3ccc(OC)c(Br)c3)cc21	-19%	nt	-1%	-1.2%
O=C(O)CCc1nnc(SCC(=O)Nc2cccc(C(F)(F)F)c2)[nH]c1=O	1%	-6	-3%	-0.6%
O=C(CCc1ccccc1)OCC(=O)c1cccc([N+](=O)[O-])c1	0%	-14	0%	0.3%
Cc1ccc(S(=O)(=O)N2CCN(S(=O)(=O)N3CCOCC3)CC2)c(C)c1	-7%	0	2%	-4.1%
OC(CSc1ccc(F)cc1)CN1CCN(c2ccccc2)CC1 (stereo not given)	3%	10	0%	1.2%
CCOc1ccc(NS(=O)(=O)c2cc(C(=O)N3CCN(c4ccccc4O)CC3)ccc2Cl)cc1	-1%	nt	nt	-1.4%
Cc1cc(OCC(=O)N2CCN(c3ccccn3)CC2)c(C)cc1Br	-3%	nt	-5%	1.3%
COc1ccc(S(=O)(=O)N2CCCC2C(=O)NCc2cccs2)cc1 (stereo not given)	1%	-3	-5%	1.5%
C#CCOCCOCCOCCNc1nc(N2CCN(C(=O)[C@H]([C@@H](C)CC)n3cc(CCCN=C(N)N)nn3)CC2)nc(N2CCN(C(=O)[C@H](CCCCN)n3cc(CC(C)O)nn3)CC2)n1 (stereo not given in full)	-20%	nt	nt	-4.1%
Clc1cccc(-c2nc(NCC3CCCO3)c3ccccc3n2)c1 (stereo not given)	19%	-4	9%	?
Cn1c(-c2cc3c(C(F)(F)F)nn(C)c3s2)n[nH]c1=S	0%	-7	-16%	-3.9%
CCCCOC(=O)CCc1n[nH]c(=O)[nH]c1=O	-2%	-8	-2%	-2.1%
CCc1nc2ccccc2c2nc3ccccc3n12	3%	0	6%	0.5%
O=C(CNC(=S)N(CCCN1CCOCC1)Cc1cccs1)NC1CCCCC1	-1%	-4	0%	-1.0%
O=[N+]([O-])c1ccc(OCCOc2ccccc2/C=N/n2cnnc2)cc1	-2%	2	-3%	2.4%
CC(C)Cn1c(SCC(N)=O)nnc1-c1cccc(S(=O)(=O)N2CCOCC2)c1	-5%	nt	nt	0.2%
COc1ccc(CNC(=O)CCc2ccc(S(=O)(=O)N3CCCCCC3)cc2)cc1OC	11%	nt	nt	0.1%
CCOC(=O)c1cc(C)n(S(=O)(=O)c2ccc(C)cc2)c1C	3%	1	-1%	-0.4%
Cc1cccnc1NC(=O)C1CCN(S(=O)(=O)c2cccs2)CC1	7%	-5	-1%	0.8%
COc1ccccc1CNS(=O)(=O)c1c(C)[nH]c(C)c1C(=O)N1CCCC1	-3%	nt	-5%	0.4%
CCOC(=O)C(CSCC(=O)c1ccc(Cl)cc1)NC(=O)OC(C)(C)C (stereo not given)	1%	-8	-1%	-0.6%
CC(C(=O)c1ccc(-c2ccccc2)cc1)[n+]1cccc(NC(=O)c2ccccc2)c1 (stereo not given)	1%	-1	11%	-0.3%
N/C(=N\OC(=O)c1ccc(Cl)cc1)c1ccc(Cl)cc1	0%	3	-6%	-0.5%
O=C(Nc1ccccc1-c1nc2ccccc2s1)c1ccco1	13%	-4	-4%	-1.6%
CCCCOc1ccc(C(=O)Nc2ccc(SC(F)F)cc2)cc1OC	-8%	3	-15%	-0.5%
COc1ccc(Cc2nnc(NC(C)=O)s2)cc1	1%	1	-1%	0.2%

In the list so far, three contain a CF3 group.
SMILES	Rango dissoc inh	GLA inh pH 4.5	miR-21 reporter	Rango complex inh
Cc1[nH]c(C)c(S(=O)(=O)N2CCN(c3cccc(C(F)(F)F)c3)CC2)c1C(=O)N1CCCCC1	0%	nt	-1%	2.5%
O=C(O)CCc1nnc(SCC(=O)Nc2cccc(C(F)(F)F)c2)[nH]c1=O	1%	-6	-3%	-0.6%
Cn1c(-c2cc3c(C(F)(F)F)nn(C)c3s2)n[nH]c1=S	0%	-7	-16%	-3.9%
